eIF4H FP inh: inhibitors of RNA binding by human eIF4H; inhibition, % at 35 µM; eIF4H fluorescence polarization binding assay; Q15056; actives 0.94% (n = 290,000);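 active = 50% or more with normal probe brightness, or confirmed in later tests; inconclusive = above 50% with abnormal brightness, or retests that disagree; inactive = below 50% or failed in later tests; about a fifth of its hits are not listed in these tables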;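 also: calls also rest on retests at 20 µM and on dose response follow-up; 0% = protein and probe with vehicle and 100% = probe without protein; strong numbers were not always called active; many hits fall short of the cut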
MT1-MMP act inh: inhibitors of human MT1-MMP activation; GFP/RFP ratio change, % at 20 µM; HT1080 RFP-PRO-GFP cells, GFP/RFP ratio fluorescence, overnight; percent of plate control window, DMSO zero; actives 0.061% (n = 360,000); AID 651647;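 active = GFP/RFP ratio change of at least 30% with cell ATP level not reduced by more than half and red fluorescence within 50% of control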; also: strong numbers were not always called active
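Test system: HT1080 RFP-PRO-GFP cells; Benchmarks: DMSO and RFP-L50D-GFP cell wells; Timing: cells overnight before dosing, compound overnight, 37 °C, 5% CO2; Compound: one 20 µM compound dose with 1% DMSO; Read-out: GFP/RFP fluorescence ratio.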
Env fusion inh: inhibitors of HIV Env-mediated cell fusion; HeLa-JRFL Env/CEM21 cell fusion, luciferase; inhibition, % at 12.3 µM; actives 1.1% (n = 360,000);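 active = mean replicate inhibition score of at least 50 and every replicate individually at or above 50; inconclusive = only one of the two criteria met; inactive = mean below 50 and not all replicates reaching 50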;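 also: 0% = plate neutral controls and 100% = maraviroc near 300 nM; one replicate is shown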
CSC inhib: blocks cancer stem cells; cancer stem cell-like cells viability, luminescence; inhibition, % at 7.5 µM; actives 1.1% (n = 300,000); AID 2717;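 active = mean at 75% or more and at least half the replicates too; inconclusive = mean and replicates disagree; tested in HMLE shEcad cells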;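 also: 0% = median of negative and 100% = median of positive control wells; the first replicate is given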
Rce1 inhib: inhibitors of yeast Ras-converting enzyme. Q03530. yeast membranes, quenched prenylated peptide cleavage fluorescence. calls only. actives 0.27% (n = 290,000). AID 2563;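 active = fall in fluorescence gain of 50% or more versus controls, with final raw signal at or below 3038400; inconclusive = same 50% fall but final raw signal above 3038400; inactive = fall in fluorescence gain under 50%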;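 also: plate controls were neutral control wells for no effect and wells lacking membranes for full effect; tested at 10 µM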
Target sequence (Q03530 whole entry, looked up): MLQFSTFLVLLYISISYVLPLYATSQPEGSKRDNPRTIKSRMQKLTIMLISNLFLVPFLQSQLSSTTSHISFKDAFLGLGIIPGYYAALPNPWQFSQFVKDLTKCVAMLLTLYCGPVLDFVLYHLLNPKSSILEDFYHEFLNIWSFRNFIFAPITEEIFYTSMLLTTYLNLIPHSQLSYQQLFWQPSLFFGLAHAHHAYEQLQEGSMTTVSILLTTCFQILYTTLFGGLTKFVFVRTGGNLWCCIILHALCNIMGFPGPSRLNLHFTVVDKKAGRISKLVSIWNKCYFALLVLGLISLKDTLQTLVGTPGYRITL
UUG fidelity: yeast start codon fidelity modulation; S. cerevisiae UUG-firefly luciferase reporter, luminescence/redox ratio; activity score, % at 18.7 µM; actives 0.13% (n = 350,000); AID 602363;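 active = replicate mean at a twofold rise or more, about +100% in these data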;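 also: firefly luciferase made from a UUG start codon reports start codon fidelity; reporter light over untreated wells divided by growth signal over untreated wells; some hits fall short of that in this replicate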
PABP FP inh: PABP-poly(A) binding inhibition; P11940; PABP-poly(A) RNA binding, fluorescence polarization; inhibition, % at 35 µM; actives 1% (n = 290,000);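 active = 50% or more with normal probe brightness, or confirmed in later tests; inconclusive = above 50% with abnormal brightness, or retests that disagree; inactive = below 50% or failed in later tests; about a fifth of its hits are not listed in these tables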;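 also: calls also rest on retests at 20 µM and on dose response follow-up; controls were probe without protein and protein plus probe with vehicle; some compounds called inactive have numbers as strong as hits; many hits fall short of the cut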
MT1-MMP act inh RFP: also measured in MT1-MMP act inh; calls as there; RFP signal change, %; measured here: RFP expression control read;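 0 = vehicle wells; hits needed this value within 50% of zero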
An asterisk follows results filed as active; i = inactive; ? = inconclusive; . = no result given; & = joins results of further samples.

SMILES,eIF4H FP inh,MT1-MMP act inh,MT1-MMP act inh RFP,Env fusion inh,CSC inhib,Rce1 inhib,UUG fidelity,PABP FP inh
Cc1occc1C(=O)N/N=C/c1c[nH]c2ccccc12,-4,10,5,.,9,.,-10,4
CN(C)c1ccc(NC(=O)CCN2C(=O)c3cccc([N+](=O)[O-])c3C2=O)cc1,-4,-6,-2,4,6,i,-15,4
COc1ccc(/C=C/C(=O)c2cc(Br)ccc2OC(=O)c2ccco2)cc1OC,5,-8,-2,-11,11,i,.,8
CCCCn1nnnc1SCC(=O)c1ccc(C)c(C)c1,2,-6,-1,.,20,i,-39,18
CC(NC(=O)COc1cccnc1[N+](=O)[O-])c1ccc(Cl)cc1 (stereo not given),1,2,4,-6,15,i,-11,12
Cc1ccc2nc(-c3ccccc3)c(-c3ccccc3)nc2c1,1,2,-9,-10,0,i,.,-5
C[C@@H]1CCCCO[C@@H](CN(C)Cc2ccncc2)[C@@H](C)CN([C@H](C)CO)C(=O)c2cc(NC(=O)c3ccccc3)ccc2O1,.,1,1,-25,.,.,-7&-3,.
O=C(c1ccc([N+](=O)[O-])cc1)N(Cc1ccc(Br)cc1)N1C(=O)CCCC1=O,-9,2,1,13,-7,i,-12,-1

Whole records from above. Values in the order: eIF4H FP inh, MT1-MMP act inh, MT1-MMP act inh RFP, Env fusion inh, CSC inhib, Rce1 inhib, UUG fidelity, PABP FP inh
`C[C@@H]1CCCCO[C@@H](CN(C)Cc2ccncc2)[C@@H](C)CN([C@H](C)CO)C(=O)c2cc(NC(=O)c3ccccc3)ccc2O1` in the list: ., 1, 1, -25, ., ., -7&-3, .
`Cc1occc1C(=O)N/N=C/c1c[nH]c2ccccc12` in the list: -4, 10, 5, ., 9, ., -10, 4

Next part
SMILES,eIF4H FP inh,MT1-MMP act inh,MT1-MMP act inh RFP,Env fusion inh,CSC inhib,Rce1 inhib,UUG fidelity,PABP FP inh
CCOC(=O)c1cccnc1SCc1cc(=O)n2ccccc2n1,-15,-4,5,.,-6,i,.,-7
CC[C@@]12C(=O)N(c3cccc(Cl)c3)C(=O)N1[C@H](c1cccc(C)c1)[C@@H]1C(=O)N(Cc3ccccc3)C(=O)[C@@H]12,.,-5,-3,46,11,i,-16,.
COc1cccc(NC(=O)C(=O)NCC2CCCN2S(=O)(=O)c2ccccc2)c1 (stereo not given),.,1,-2,-76,2,i,.,.
Cc1cc(C)c(S(=O)(=O)N2CCCC(C(=O)NC3CC3)C2)c(C)c1 (stereo not given),-4,-2,1,-7,-20,i,1,-2
Cc1ccc(C(c2sc3nc(C)nn3c2O)N2CCN(C(=O)c3ccco3)CC2)cc1 (stereo not given),5,2,4,.,-12,i,-16,2
O=C(NCc1ccccc1)C1CCN(S(=O)(=O)c2cccc3cccnc23)CC1,-8,-5,4,-262,.,.,-20,-8
COCCn1c(SCC(=O)NC2(C#N)CCCCC2)nc2ccccc2c1=O,.,2,1,.,6,.,13,.
CC(C)OCCCNC(=O)c1c(N)n(/N=C/c2cccs2)c2nc3ccccc3nc12,-7,-5,2,-101,4,i,-16,0

(further entries)
SMILES,eIF4H FP inh,MT1-MMP act inh,MT1-MMP act inh RFP,Env fusion inh,CSC inhib,Rce1 inhib,UUG fidelity,PABP FP inh
COCc1cc(=O)n2[nH]c(C(F)(F)F)nc2n1,-11,2,5,.,3,i,-10,16
CN(C(=O)c1ccc(NC(=O)C2CCCN(C(=O)OC(C)(C)C)C2)cc1)C1CC1 (stereo not given),.,7,-4,6,-16,.,27,.
COc1ccc(CN2C(=S)NC(C)(C)CC2(C)O)cc1 (stereo not given),-12,-3,4,-4,-15,i,-16,8
CCOC(=O)CSc1ncnc2c1nnn2-c1ccc(F)cc1,-5,4,6,.,-6,i,-13,-3
CCN1C(=O)/C(=C/C2=Cc3ccccc3OC2C)SC1=S (stereo not given),?,-53,-3,-6,-7,i,4,?
CCS(=O)(=O)c1ccc2oc(SCC(=O)c3c(N)n(C4CC4)c(=O)[nH]c3=O)nc2c1,.,8,-8,.,5,.,-11,.
COc1ccc(C(C)NC(=O)c2cccc([N+](=O)[O-])c2)cc1OC (stereo not given),-2,2,4,.,-1,i,-4,0
O=C(Nc1cc(Cl)ccc1N1CCOCC1)C1CC1,.,0,-3,9,-7,.,-10,.

Going on with the list.
SMILES,eIF4H FP inh,MT1-MMP act inh,MT1-MMP act inh RFP,Env fusion inh,CSC inhib,Rce1 inhib,UUG fidelity,PABP FP inh
Cc1ccccc1C(=O)N1CCC(C(=O)OCc2ccccc2Cl)CC1,.,-2,7,-6,8,.,11,.
CSc1nc2ccc(NC(=O)C3CC(=O)N(Cc4ccco4)C3)cc2s1 (stereo not given),2,1,-2,.,-6,i,-5,-2
CN(C)N1C(N)=C(C#N)C(c2ccc3c(c2)OCO3)C2=C1CC(C)(C)CC2=O (stereo not given),0,0,4,-5,-11,i,-11,7
Cc1ccccc1NS(=O)(=O)c1cc(S(C)(=O)=O)ccc1Cl,-5,-1,2,.,4,i,-10,-2
Cc1ccc(NC(=O)CSC(C)C(=O)OC(C)C(=O)NC2CCCCC2C)cc1 (stereo not given),.,2,-1,14,.,.,6,.
C=CCOC(=O)C(=O)/C=C/c1ccc2c(c1)Cc1ccccc1-2,-1,6,5,-4,20,i,-13,-10
CC1CCC(NC(=O)CN(C)S(=O)(=O)c2ccc3c(c2)CCC(=O)N3)CC1 (stereo not given),-6,5,2,-4,-7,i,-14,17
CCOc1c(C(N)=O)cc([N+](=O)[O-])cc1[N+](=O)[O-],-2,2,4,10,2,.,.,-16

(further entries)
SMILES,eIF4H FP inh,MT1-MMP act inh,MT1-MMP act inh RFP,Env fusion inh,CSC inhib,Rce1 inhib,UUG fidelity,PABP FP inh
CCN(CC)C(=O)C1CCN(C(=O)c2oc3ccc(C)cc3c2C)CC1,2,-4,0,-12,6,.,0,4
CCOc1ccccc1NC(=O)CSc1ncnc2c1oc1ccccc12,0,-2,-6,?,5,i,-13,-7
CN(C)c1ccc(/C=N/NC(=O)c2cc(-c3ccc4c(c3)OCO4)n[nH]2)cc1,-2,-3,-11,-132,66,i,.,-2
COc1ccnc2c1c(=O)n(Cc1ccc(Cl)cc1Cl)c(=O)n2C,1,-1,2,19,-9,i,-20,-5
O=C(Cc1ccccc1[N+](=O)[O-])Nc1ccccc1C(=O)N1CCCC1,0,2,3,50,1,i,.,8
COc1cccc(C(=O)N/N=C/c2cn[nH]c2-c2ccc(OC)cc2OC)c1,4,-2,-1,.,-2,i,-20,8
CCCOc1ccc(OCCOCCNCc2ccccc2)cc1,-3,-12,-1,16,4,i,-6,3
CCC(OC(=O)c1ccco1)C(=O)NCc1ccc(OC)cc1 (stereo not given),38,1,-3,11,-10,i,-8,18

(listing goes on)
SMILES,eIF4H FP inh,MT1-MMP act inh,MT1-MMP act inh RFP,Env fusion inh,CSC inhib,Rce1 inhib,UUG fidelity,PABP FP inh
COc1ccccc1Nc1nc(N)nc(CSc2nccn2C)n1,-14,-1,2,-2,-6,i,.,-2
COCCN1Cc2cccc(C(=O)NCc3ccccn3)c2C1=O,-3,-1,4,17,-15,i,-14,-3
O=C(COC(=O)c1ccccn1)NNC(=O)c1ccc(Br)cc1,.,-1,5,-27,-12,.,-25,.
Fc1cccc(CSc2nc3ncccc3[nH]2)c1,4,4,2,.,9,i,.,0
COc1ccc(N2CCN(CCCNC(=O)C(=O)c3c(C)n(C)c4ccccc34)CC2)cc1,-8,1,0,-3,5,i,-24,-5
Cc1nc(SCC(=O)NC(=O)NCc2ccccc2)nc(C)c1C,-4,2,0,.,-9,i,.,-6
CSc1ccccc1C(=O)NCc1cccnc1,-10,0,1,-20,-6,i,-20,-6
Cc1cc(Br)c2c(c1)=C(c1sc(N3CCCCCC3)nc1O)C(=O)N=2,-4,14,6,-26,.,i,9,3

(listing goes on)
SMILES,eIF4H FP inh,MT1-MMP act inh,MT1-MMP act inh RFP,Env fusion inh,CSC inhib,Rce1 inhib,UUG fidelity,PABP FP inh
COc1ccc(CC(=O)Nc2nc(OCC(F)(F)F)cnc2-c2ccc(Cl)cc2Cl)cc1,.,-3,-7,2,.,.,-18,.
CC(C(=O)NCc1cccs1)n1cccc1 (stereo not given),-10,5,3,.,39,i,2,0
CSc1ccccc1NC(=O)CN(C)Cc1ccc(Br)cc1,-5,-3,1,36,-2,i,.,2
CCC1=C(OC(=O)N(CC)CC)N2C(=O)OC(=NCCc3c[nH]c4ccccc34)[C@]2(Cc2ccccc2)[C@H]2C1=CC[C@H]1C(=O)NC(=O)[C@H]12,-6,-2,-5,-39,21,i,-7,5
CCOC(=O)CCCNC(=O)COC(=O)[C@@H]1CCCN1S(=O)(=O)c1ccc(Cl)cc1,2,3,1,-27,-5,i,1,-4
COc1ccc2nc(N/C(N)=N/C(=S)Nc3c(C)cccc3C)nc(C)c2c1,1,-5,-6,-12,18,i,.,?
O=S(=O)(c1ccc(Oc2ncnc3scc(-c4ccccc4)c23)cc1)N1CCOCC1,12,-9,-19,.,-6,i,-5,-3
CC(C)=CCn1c2ccc(NC(=O)Nc3cccnc3)cc2c(=O)n1C,.,-2,4,19,.,.,-12,.

(list continues)
SMILES,eIF4H FP inh,MT1-MMP act inh,MT1-MMP act inh RFP,Env fusion inh,CSC inhib,Rce1 inhib,UUG fidelity,PABP FP inh
COc1ccccc1NC(=O)Cn1nc(C)n2cccc2c1=O,-2,-2,-2,-7,-16,i,-13,11
N#C/C(=C\c1cc([N+](=O)[O-])c(N2CCCCC2)cc1N1CCCCC1)c1nn(-c2ccccc2)c(N)c1C#N,-12,6,-1,.,-4,i,-4,-1
O=c1nc(SCc2cccc(C(F)(F)F)c2)nc2ccccn12,-10,15,-1,-8,22,i,8,-4
CN(C)c1ccc(C(=S)NC2CCCCC2)cc1,-4,3,5,-14,-15,i,.,5
CCC(C)(C)NC(=S)Nc1ccccc1C,1,-6,-4,-3,8,i,.,3
COc1ccccc1C1CC(c2ccco2)=NN1c1ccccc1 (stereo not given),2,-8,-1,.,.,?,.,-2
O=C(Nc1ccc(N2CCCC2)cc1)c1ccc(Br)cc1,-2,-1,2,-12,-7,.,-29,15
O=C(Nc1ccc(Oc2ccccc2)nc1)C1CCCCN1Cc1ccc(OCCO)cc1 (stereo not given),-5,-2,-3,-9,0,i,-12,-8

(further entries)
SMILES,eIF4H FP inh,MT1-MMP act inh,MT1-MMP act inh RFP,Env fusion inh,CSC inhib,Rce1 inhib,UUG fidelity,PABP FP inh
Fc1ccc(-c2csc3ncnc(N4CCN(Cc5ccccc5)CC4)c23)cc1,-6,-7,-17,3,2,i,-25,-9
O=C(COC(=O)CC1CCCC1)Nc1ccccc1[N+](=O)[O-],.,3,7,19,-8,.,-3,.
CSc1cccc(NC(=O)C2CC(=O)N(Cc3ccccc3)C2)c1 (stereo not given),-8,0,5,-11,-11,i,4,20
N#Cc1ccc(OCC(=O)Nc2cc(S(=O)(=O)N3CCCCC3)ccc2N2CCCCC2)cc1,1,2,-2,-5,.,i,.,-8
COc1ccc(NC(=O)/C=C/c2ccc3c(c2)OCO3)cc1,-7,3,3,-176,71,i,.,7
COc1ccc2nc(Nc3ccc4c(c3)OCO4)sc2c1,-10,0,-5,-76,-4,i,-21,3
CC1(C(=O)NS(=O)(=O)c2ccc(C#N)cc2)CCN1C(=O)CCc1ccc(Cl)cc1Cl (stereo not given),.,1,5,-15,.,.,-4,.

These rows are one share of the data; rates above refer to the full screens.
